Compound activity from PubChem.
UCH37 inh: blocks the human deubiquitinase UCH37; inhibition, % (test concentration not listed); Q9Y5K5; hit rate 0.33% among 330,000; AID 588478; purified proteasome/UCH37, Ub-AMC cleavage fluorescence;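 active = mean of two replicates above 20%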;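 also: 0% = compound-free wells with enzyme and 100% = wells lacking proteasome; stock transfer was 100 nL into about 20 µL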
Target sequence (Q9Y5K5 whole entry, looked up): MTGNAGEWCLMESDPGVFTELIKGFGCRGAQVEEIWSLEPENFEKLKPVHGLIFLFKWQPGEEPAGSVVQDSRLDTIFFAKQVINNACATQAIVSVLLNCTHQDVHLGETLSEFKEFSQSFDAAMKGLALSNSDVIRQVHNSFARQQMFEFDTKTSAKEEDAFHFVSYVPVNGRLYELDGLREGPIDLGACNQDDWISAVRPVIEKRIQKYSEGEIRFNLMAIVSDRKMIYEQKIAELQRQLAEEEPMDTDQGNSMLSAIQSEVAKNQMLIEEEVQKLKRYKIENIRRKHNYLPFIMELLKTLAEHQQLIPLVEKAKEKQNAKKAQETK
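system = Proteasome-associated human UCH37 deubiquitinase | amount = 0.15 nM proteasome as dispensed | medium = pH 7.4 Tris-HCl (50 mM) with ovalbumin, ATP-MgCl2, DTT | incubation = 30 min preincubation with enzyme, 25 min cleavage at room temperature | detection = AMC fluorescence 355/460 nm | read-out basis = percent inhibition | controls = no-proteasome and no-compound wells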
Beta2AR agonist: activates human beta-2 adrenergic receptor causing internalization. Am2.2-beta2AR cells, FAP receptor internalization, flow cytometry; reference of the scale not given here. response, % (no concentration beside the values). P07550. AID 504454. hit rate 0.43% among 340,000;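 active = response above a set limit, near 3 SD of response in nonfluorescent compounds, cut at about 42% in these data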;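 also: stock transfer was 100 nL into about 11 µL; a reference agonist was the positive control; negative values mostly stem from fluorescent compounds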
Target sequence (P07550 whole entry, looked up): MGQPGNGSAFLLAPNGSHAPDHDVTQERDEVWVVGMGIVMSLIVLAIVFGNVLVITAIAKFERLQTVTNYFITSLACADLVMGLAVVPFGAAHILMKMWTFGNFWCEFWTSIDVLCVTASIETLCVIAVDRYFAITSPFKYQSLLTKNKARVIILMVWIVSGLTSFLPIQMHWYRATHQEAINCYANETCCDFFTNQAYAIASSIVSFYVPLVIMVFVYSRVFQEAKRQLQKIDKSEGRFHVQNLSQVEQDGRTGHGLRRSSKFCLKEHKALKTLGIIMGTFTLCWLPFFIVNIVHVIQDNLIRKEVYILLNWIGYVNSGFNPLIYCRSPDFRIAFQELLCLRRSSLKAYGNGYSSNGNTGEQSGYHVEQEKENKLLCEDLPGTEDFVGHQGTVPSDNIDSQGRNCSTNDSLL
Calb FLC: C. albicans growth modulation with fluconazole | C. albicans CaCi-2 (fluconazole-resistant clinical isolate) + fluconazole, Alamar Blue growth, 48 h | growth inhibition, % (concentration not given with the values) | hit rate 0.57% among 300,000;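 active = most replicates above 75%; inconclusive = exactly half above 75%; inactive = most below 75%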;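 also: all wells also contain fluconazole at 8 µg/ml as a sub-toxic cotreatment; 0% = median of DMSO wells and 100% = median of geldanamycin control wells; wells of about 8 µL received 7.5 nL stock; the first replicate is given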
Bfl-1 A1 inh: inhibitors of the anti-apoptotic protein A1, read as caspase activation; MEF A1-2A-BIM cells, Caspase-Glo 3/7 luminescence, 3 h; percent of clofoctol response, vehicle zero; caspase activation, % (test concentration not listed); hit rate 0.066% among 330,000; AID 2462;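 active = over half of replicate activation scores above 10%, or exactly half above 10 with the replicate mean above 10; inconclusive = replicate mean below 10 yet half the replicates above 10; inactive = over half of replicates below 10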;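 also: wells of about 30 µL received 50 nL stock; many hits fall short of the cut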
T cruzi inh: T. cruzi replication inhibition; T. cruzi beta-gal in NIH3T3, luminescence, 90 h; hit rate 1.4% among 300,000; inhibition, % (concentration not given with the values);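 active = mean inhibition across valid replicates above about 55%, limit read from the data; inconclusive = mean below that limit but half or more replicates reach it; inactive = mean below it, under half of replicates reach it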;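 also: signal also drops with host cell toxicity which is not excluded here; 0% = plate median of DMSO wells and 100% = zero luminescence signal; higher percent means less beta-gal luminescence so fewer parasites; stock transfer was 50 nL into about 50 µL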
Beta cell apopt: blocks beta cell apoptosis | protection from apoptosis, % (no concentration beside the values) | AID 435005 | hit rate 0.8% among 300,000 | INS-1E cytokine-induced death, ATP luminescence, 48 h; percent of positive-control rescue, neutral wells zero;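 active = all replicates at 75% or more, or half of them and the mean; inconclusive = half reach 75% but not the mean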;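 also: 0% = cytokine-treated negative control wells and 100% = positive control rescue; higher means more ATP so stronger rescue from cytokine killing; wells of about 40 µL received 100 nL stock; the first replicate is given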
RanGTP-Impb inh: disruptors of Ran-importin-beta complex formation – biochemical, FRET, CFP-Ran, YFP-importin-beta, homogeneous, primary screen; cell-free CFP-Ran/YFP-importin-beta FRET ratio; inhibition, % (no concentration beside the values); hit rate 1.1% among 300,000; AID 2216;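 active = most replicates above 15%; inconclusive = exactly half above 15%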;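 also: 0% = DMSO wells and 100% = Ran loaded with GDP instead of GTP; wells of about 40 µL received 100 nL stock; the first replicate is given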
LANA-H2B inh: blocks KSHV LANA binding to histone H2A/H2B; cell-free LANA-H2A/H2B peptide, fluorescence polarization; Q9QR71; inhibition, % (test concentration not listed); hit rate 0.6% among 320,000; AID 2629; in the data active = inhibition mostly above about 10%, no sharp cut-off; inactive = mostly below about 6.7%;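 also: stock transfer was 7.5 nL into about 10 µL; 0% = median of vehicle wells and 100% = median of positive control wells; one replicate is shown; the record names a cut of 25% in any replicate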
Starred values were filed as active, the others as inactive; i = inactive; ? = inconclusive; nt = not tested or not shown.

SMILES	UCH37 inh	Beta2AR agonist	Calb FLC	Bfl-1 A1 inh	T cruzi inh	Beta cell apopt	RanGTP-Impb inh	LANA-H2B inh
CCOc1ccc(OCC(=O)NCCc2nc3ccccc3[nH]2)cc1	0.2	-2	nt	0.0	3	-2	?	-2.2
CN1CCN(c2ccc(NC(=O)c3cccc(S(=O)(=O)N4CCCC4)c3)cc2)CC1	1.0	0	nt	0.5	nt	0	nt	i
N#Cc1ccc(OCC(O)CS(=O)(=O)c2ccc(F)cc2)cc1 (stereo not given)	2.0	nt	1	0.3	-10	-4	4.5	-3.5
NC(=O)c1c(NC(=O)CN2CCOCC2)sc2c1CCC2	0.6	-11	-2	1.6	-9	-3	0.7	-3.4
CC1CCCCN1S(=O)(=O)Cc1ccccc1Cl (stereo not given)	-1.6	-3	-5	0.3	-1	-5	?	-0.7
CCCCCCC(=O)Nc1nnc(CC)s1	2.7	-3	5	0.4	-6	-4	-2.7	2.1
C=C(C)C1CC=C(C)/C(=N/NC(=O)CNc2ccc(C)cc2C)C1 (stereo not given)	nt	-34	-28	0.8	1	-4	0.8	-1.6
CCOc1ccc(NC(=O)C23CC4CC(C2)CC(c2ccccc2)(C4)C3)cc1	-5.5	6	-5	-0.4	25	13	1.0	14*
O=C(COc1cccnc1[N+](=O)[O-])Nc1ccc2c(c1)OCO2	3.7	0	?	0.0	3	3	5.9	0.3
COc1cccc(C(=O)Nn2cnnc2)c1	3.7	2	-2	0.2	3	-9	-0.3	-0.4
CN(CCNC(=O)c1cn(C)c2ccc(S(=O)(=O)N(C)C)cc2c1=O)CCc1ccccc1	2.6	-3	-6	0.4	12	-1	?	-5.1
Cc1cc(C)nc(SCC(=O)c2ccc(C)c(C)c2)n1	5.0	0	-46	-0.1	-9	-8	1.7	0.0
O=C(Nc1cc(Sc2ccccn2)cc([N+](=O)[O-])c1)c1ccc([N+](=O)[O-])cc1	nt	5	-7	1.0	nt	nt	nt	-1.7
CCC(NS(=O)(=O)c1ccc(C)cc1)C(=O)O (stereo not given)	1.2	0	-25	-1.3	-10	0	2.0	2.2
CC(C)(O)C#Cc1ccc(C(=O)N2CCC(C(N)=O)(N3CCCCC3)CC2)o1	0.9	-4	-1	nt	-9	nt	-2.0	nt
Cc1sc(N)nc1-c1ccccc1	0.7	1	-2	0.6	-13	-9	-2.5	-3.4
COc1ccc(S(=O)(=O)N2CCC[C@H]2C(=O)NC2=NCCS2)cc1	2.4	22	-13	0.3	-9	-1	-3.7	1.1
CC(=O)Nc1ccc(Nc2nc(C)c([N+](=O)[O-])c(Nc3ccccc3)n2)cc1	6.1	18	-11	-0.1	7	17	-3.7	0.4
O=C(Cc1ccccc1)Nc1ccccc1C(=O)N1CCCCC1	0.2	2	6	-0.4	0	nt	0.9	-3.6
O=C(N/C(=C\c1cn(-c2ccccc2)nc1-c1ccccc1)C(=O)N1CCOCC1)c1ccccc1	-6.2	nt	-4	0.4	-2	3	-0.1	3.3
COc1ccccc1C(=O)n1nc(C)cc1C	2.8	-3	3	-0.2	-6	-5	-1.4	-1.2
CCOc1cc(N2CCOCC2)c(OCC)cc1NC(=O)CN1C(=O)NC2(CCCCC2)C1=O	0.9	14	nt	-0.6	nt	5	nt	-5.2
Cc1nc(-c2ccc(S(=O)(=O)Nc3cc(F)ccc3F)cc2)co1	-3.3	4	45	-1.1	-5	0	1.0	-4.0
O=C(/C=C/c1ccc2c(c1)OCO2)c1ccc(F)cc1	1.3	-2	-28	-1.7	11	-3	-6.5	-3.7
O=C(CNC(=O)c1cccc(F)c1)OCCOc1cccc(Cl)c1	-0.3	-2	-2	0.9	-8	nt	6.5	0.8
Oc1oc(-c2cccc3ccccc23)nc1/C=N/c1nccs1	nt	1	-5	0.7	-14	-7	1.4	1.6
C=CCNC(=O)c1ccc(Cn2cc(C(F)(F)F)ccc2=O)cc1	-0.1	2	1	0.1	-10	2	-2.9	9.3
CC(C)[C@H](NC(=O)C1CCN(C(=O)[C@H](Cc2ccccc2)NC(=O)OC(C)(C)C)CC1)C(=O)O	2.6	-16	-5	0.1	0	-6	-2.3	3.1
CCOC(=O)C1CCN(C(=O)Cn2nc(C)n3nc(-c4ccc(CC)cc4)cc3c2=O)CC1	1.9	-3	-13	-0.2	-6	2	4.5	1.8
Cc1ccc(F)cc1NC(=O)c1sc2ncn(CC(=O)N3CCN(c4ccccn4)CC3)c(=O)c2c1C	1.1	2	-3	0.1	-9	4	-1.1	9.2
COc1ccccc1CNC(=O)c1cc2c(C)nn(Cc3ccc(F)cc3)c2s1	-2.9	2	25	-0.1	19	-15	0.0	11
O=C(CP(=O)(c1ccccc1)c1ccccc1)N1CCOCC1	1.5	4	-37	0.5	0	-6	-7.1	15*
Cc1cc2cc(CCNC(=O)C(=O)c3c[nH]c4ccccc34)c(=O)[nH]c2cc1C	1.2	25	-5	-0.3	-18	-3	4.9	-2.3
O=C(COc1ccc(Cl)cc1)NCc1ccncc1	0.0	5	-22	0.0	-17	-8	-2.5	-0.4
NC(=O)c1ccc(=O)n(Cc2ccc(F)c(F)c2)c1	-3.9	-3	9	-1.4	-9	-8	8.2	-4.2
Cc1cc(C)c2nc(N)sc2c1	3.2	4	-4	2.3	-5	-1	-3.9	5.1
COc1cccc(=O)c2c(C)oc(C)c12	nt	1	-3	0.3	nt	0	nt	-4.5
Cc1ccc2nc3sc(C(=O)Nc4ccc(N5CCOCC5)cc4)c(N)c3cc2c1	1.4	nt	-11	nt	20	nt	-8.1	nt
O=C(Oc1c(CN2CCOCC2)cc(Cl)c2cccnc12)c1ccccc1	3.3	5	118*	0.4	38	?	15*	-2.5
COc1ccc(/C=N/N2C(=O)CN(C(=O)c3ccccc3)C2c2ccc(OC)cc2)cc1 (stereo not given)	nt	-24	-3	0.3	9	-6	2.5	-2.9
Cc1ccc(NC(=O)c2ccc3snnc3c2)cc1C	-3.7	-4	19	2.1	-2	2	1.9	-2.7
CNCc1ccccc1Sc1cccc(O)c1	4.9	-10	-5	-1.2	-9	-3	3.7	4.1
COc1ccc(OCC(=O)Nc2cc(OC)ccc2N2CCCCC2)cc1	nt	-7	1	-0.5	25	3	-1.9	0.6
Cc1cc(-c2cc(-c3ccc(Cl)cc3)on2)nc(NC2CCCC2)n1	-1.9	-1	-10	0.9	17	1	0.1	3.7
CCOC(=O)Cc1csc2nc3sc(C)c(C)c3c(=O)n12	-5.5	-4	-20	-0.2	-9	-7	0.2	-2.5

Entries of single compounds, looked up by structure. Screens in order: UCH37 inh | Beta2AR agonist | Calb FLC | Bfl-1 A1 inh | T cruzi inh | Beta cell apopt | RanGTP-Impb inh | LANA-H2B inh
COc1cccc(=O)c2c(C)oc(C)c12 is entered as nt | 1 | -3 | 0.3 | nt | 0 | nt | -4.5
O=C(CP(=O)(c1ccccc1)c1ccccc1)N1CCOCC1 is entered as 1.5 | 4 | -37 | 0.5 | 0 | -6 | -7.1 | 15*
Cc1ccc2nc3sc(C(=O)Nc4ccc(N5CCOCC5)cc4)c(N)c3cc2c1 is entered as 1.4 | nt | -11 | nt | 20 | nt | -8.1 | nt
Cc1ccc(NC(=O)c2ccc3snnc3c2)cc1C is entered as -3.7 | -4 | 19 | 2.1 | -2 | 2 | 1.9 | -2.7

Continued:
SMILES	UCH37 inh	Beta2AR agonist	Calb FLC	Bfl-1 A1 inh	T cruzi inh	Beta cell apopt	RanGTP-Impb inh	LANA-H2B inh
Cc1ccc(NC(=O)CN(C)C(=O)COC(=O)CNS(=O)(=O)c2ccc(F)c(F)c2F)cc1	1.0	4	-1	0.5	0	-4	-2.0	nt
COC(=O)CN(c1ccccc1[N+](=O)[O-])S(=O)(=O)c1ccccc1	1.8	-8	-13	-0.3	-23	-2	1.7	2.0
Cc1ccc(-n2ncc(C(=O)NC3CC3)c2C2CCN(C(=O)OC(C)(C)C)CC2)c(C)c1	3.9	2	-21	0.3	10	8	-1.7	0.0
CCOc1cccc(C(=O)N(Cc2ccco2)C2CCS(=O)(=O)C2)c1 (stereo not given)	0.4	6	-2	0.0	0	-8	-0.3	4.2
O=C(c1ccco1)N1N=C(c2cccs2)CC1c1ccccc1O (stereo not given)	-61	1	21	0.5	26	-4	2.4	-9.9
CCOc1ccccc1CNc1nnnn1C	2.8	1	-5	0.1	7	-1	1.1	2.7
Cc1onc(-c2ccccc2)c1C(=O)NCCN1CCOCC1	-0.2	8	?	-0.3	-4	0	2.2	-0.2
CC(=O)Nc1ccc(OC(F)(F)C(F)F)c(NC(C)=O)c1	2.4	-2	8	0.7	1	-2	-0.6	-1.4
NS(=O)(=O)c1ccc(CCNC(=O)Nc2ccc(Cl)cc2)cc1	2.5	7	-8	-0.1	0	nt	4.9	-4.4
COc1ccc(C2c3[nH]c4ccccc4c3CCN2C(=O)c2ccccc2C(C)=O)c(F)c1 (stereo not given)	5.0	-5	43	0.2	11	6	4.0	-6.7
CCN1CCN(Cc2ccc(NC(=O)c3cc(NC(=O)c4ccc5n[nH]nc5c4)cc(OC)c3)cc2C(F)(F)F)CC1	1.3	-4	5	-0.4	-19	-2	8.0	-4.3
Cc1ccc(O)c(CNc2nc3ccccc3[nH]2)c1	0.7	0	-3	nt	0	nt	1.1	nt
O=C(O)c1cc(-c2ccccc2)n(-c2ccc(F)cc2)n1	0.4	-5	8	1.6	-5	nt	0.9	-5.8
CC1CCC(NC(=O)CCN2C(=O)C3C4C=CC(C4)C3C2=O)CC1 (stereo not given)	1.7	5	-11	-0.9	-29	-6	4.0	-1.7
CCOC(=O)C1CCCN(CC(=O)NC2CC2)C1 (stereo not given)	5.0	5	14	0.0	-19	-6	0.6	-5.9
Cn1c(/C=C/c2ccc(Br)cc2)c([N+](=O)[O-])c(=O)n(C)c1=O	3.0	27	6	0.3	11	-8	-2.7	-5.3
Cc1nc2c(C#N)cnn2c2c1CCN2CC1CCCO1 (stereo not given)	0.6	-3	-8	0.1	-3	-4	-2.4	-1.6
O=C(CSc1ncccn1)NCc1cccc(Cl)c1	2.6	-4	?	0.3	-2	-5	1.2	-2.0
OCCN1CCN(CC(O)COC(c2ccc(F)cc2)c2ccc(F)cc2)CC1 (stereo not given)	-1.8	-2	-5	0.0	2	-1	2.7	3.2
CNS(=O)(=O)c1cccc(C(=O)OCC(=O)NCCCc2ccccc2)c1	5.2	5	-2	1.3	-1	-6	1.6	0.8
O=C(COc1ccc(S(=O)(=O)N2CCOCC2)cc1Cl)NCC1CCCO1 (stereo not given)	5.6	-8	7	0.3	3	0	0.7	6.9
Cc1ccc(S(=O)(=O)N2CCC(C(N)=O)CC2)cc1[N+](=O)[O-]	0.0	0	0	0.5	-2	-6	0.1	0.9
Cc1cnc(C(=O)Nc2nnc(SCc3c(Cl)cccc3Cl)s2)cn1	-1.8	-7	2	1.5	18	nt	-4.0	-0.8
CCOC(=O)c1sc(NC(=O)CCc2ccc(OC)cc2)nc1C	0.2	7	3	0.1	-7	-2	1.9	-3.0
CCOCc1nnc(NC(=O)c2cc(OC)cc(OC)c2)s1	4.3	2	3	0.2	-1	-3	-0.9	-5.0
